TRPV1 PAM: HTS Assay for Compounds that Act as Potentiators of the Vanilloid Receptor 1. TRPV1-expressing cells, Fluo-8 calcium influx, capsaicin EC20 potentiation; host cell line not named in the record; control for the full effect not named in the record. potentiation, % at 8.33 µM. hit rate 0.02% among 320,000. AID 540277, 2011; active means potentiation above 80%; inconclusive means 30% to 80%; inactive means below 30%; note: 0% is about no effect
Target sequence (Q8NER1 whole entry, looked up): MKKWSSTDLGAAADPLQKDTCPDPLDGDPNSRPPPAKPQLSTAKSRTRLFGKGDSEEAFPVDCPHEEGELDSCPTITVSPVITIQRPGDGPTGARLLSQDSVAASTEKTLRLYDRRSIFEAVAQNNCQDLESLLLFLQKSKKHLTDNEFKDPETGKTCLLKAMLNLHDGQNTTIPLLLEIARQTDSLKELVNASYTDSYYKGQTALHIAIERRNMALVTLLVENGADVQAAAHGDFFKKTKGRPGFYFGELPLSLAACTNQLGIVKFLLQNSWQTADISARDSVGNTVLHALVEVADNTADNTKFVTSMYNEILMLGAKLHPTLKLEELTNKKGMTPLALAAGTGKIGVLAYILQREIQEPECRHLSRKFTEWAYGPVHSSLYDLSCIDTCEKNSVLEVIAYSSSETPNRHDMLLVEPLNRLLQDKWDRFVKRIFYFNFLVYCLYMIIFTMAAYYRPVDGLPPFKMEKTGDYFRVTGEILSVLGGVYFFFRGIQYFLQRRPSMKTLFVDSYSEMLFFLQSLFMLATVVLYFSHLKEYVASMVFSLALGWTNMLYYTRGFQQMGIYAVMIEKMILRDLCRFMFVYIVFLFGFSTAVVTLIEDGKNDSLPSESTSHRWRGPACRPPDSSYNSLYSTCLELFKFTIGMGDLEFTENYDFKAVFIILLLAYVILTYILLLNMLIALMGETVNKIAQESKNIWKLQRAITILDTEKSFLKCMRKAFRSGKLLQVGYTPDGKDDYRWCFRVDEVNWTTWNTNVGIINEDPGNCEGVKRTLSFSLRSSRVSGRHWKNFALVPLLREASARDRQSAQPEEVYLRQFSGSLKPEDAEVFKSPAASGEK
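TRPV1-expressing cells were cultured overnight at 35.5C and loaded with Fluo-8 calcium dye for 40 to 90 min at room temperature. After a 10 s baseline, compound was added and calcium influx was read kinetically for 3 min (ex 480/em 520 nm).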
gsp antag: qHTS for Antagonists of gsp, the Etiologic Mutation Responsible for Fibrous Dysplasia/McCune-Albright Syndrome: qHTS; AID 624288, 2012; gsp-mutant cells, cAMP HTRF, 30 min; control for the full effect not named in the record; hit rate 0.4% among 340,000; Potency, µM (series often up to 76.9 µM), for the others: at the highest dose activity change, negative = inhibition, usual class: inhibitors; active = falling curve of any shape with a large fitted effect; inconclusive = falling curve, mostly with a smaller effect; inactive = flat or rising curve; cell line not stated here;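 note: intracellular cAMP measured with PDE inhibitor Ro 20-1724 present during compound exposure; potency is the fitted concentration of half-maximal effect; % is set by controls: 0 for no effect and ±100 for the full control effect; nearly all actives have a fitted effect of over 65% in size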
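Measurement of cellular cAMP by homogeneous time-resolved fluorescence following a 30 min compound exposure at 37C. The PDE inhibitor […] was present throughout; the assay buffer was DPBS with 0.05% BSA and 0.005% Tween 20.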
Menin-MLL FL inh: qHTS Assay for Inhibitors Targeting the Menin-MLL Interaction in MLL Related Leukemias: Competition With Fluorescein Labeled MLL-derived Peptide. FP activity change, % at 61.4 µM. AID 1766, 2009. 290,000 tested, under 10 active. Fluorescence polarization, fluorescein-MLL peptide displacement from menin; inconclusive = falling polarisation curve, or a change in total fluorescence; inactive = total fluorescence flat and polarisation flat or rising; no compound was filed as active; the % refers to the polarisation; negative = inhibition;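 note: % of control where 0% means no effect; inhibitors lower the polarisation; unlabelled MLL peptide was the positive control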
Sfp PPTase inh: qHTS Assay for Inhibitors of Bacillus subtilis Sfp phosphopantetheinyl transferase (PPTase); 4'-phosphopantetheinyl transferase ffp (Bacillus subtilis), Q9F4F7; Biochemical Sfp PPTase activity, qHTS; Potency, µM, for the others: max response, negative = inhibition, usual class: inhibitors; hit rate 3.5% among 310,000; AID 1490, 2009; active = well fitted inhibition curve with a large enough effect; inconclusive = small, poorly fitted or top-dose-only effect, or another doubt; inactive = no such curve, though single readings can be large or run the other way;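 note: the enzyme is Sfp with the accession as filed and its product quenches rhodamine fluorescence; potency is the fitted concentration of half-maximal effect; 0% = enzyme reaction without inhibitor and -100% = no enzyme wells; top concentration of the series not given in the record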
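Sfp 15 nM + cpd, 15 min RT; start w/ rhodamine-CoA 5 uM, BHQ-2-YbbR 12.5 uM (final); 50 mM Hepes pH 7.6, 10 mM MgCl2, 0.01% NP-40, 0.01% BSA; read 525/598 nm at 0 and 30 min.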
CtBP-E1A inh: qHTS Assay for Inhibitors of the CtBP/E1A Interaction. CtBP / adenovirus E1A interaction (AlphaScreen). AlphaScreen GST-E1A/His-CtBP binding, 1536-well; active compounds read low; control for the full effect not named in the record. activity change, % (concentration not given with the values). hit rate 0.49% among 340,000. AID 651724, 2012; in the data active means activity change below about -65%; inconclusive means about -30% to -65%; inactive means above about -30%; note: % is set by controls: 0 for no effect and ±100 for the full control effect
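In 5 uL wells, 23 nL compound meets equimolar GST-E1A and His-CtBP (5X stock 125 nM each) for 2 h, 37 °C. Beads (5X, 50 ug/mL) then 1 h, 37 °C, dark.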
gsp agonist: qHTS for Agonist of gsp, the Etiologic Mutation Responsible for Fibrous Dysplasia/McCune-Albright Syndrome: qHTS; hit rate 0.13% among 340,000; gsp mutant cells, cAMP HTRF, 30 min; control for the full effect not named in the record; AID 624287, 2012; Potency, µM (doses to about 76.9 µM), for inactives: at the top dose activation (cAMP increase), actives largely listed as activators; active = well fitted activation curve with a large enough effect; inconclusive = small, poorly fitted or top-dose-only effect, or another doubt; inactive = no such curve, though single readings can be large or run the other way; cell line not stated here;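 note: phosphodiesterase inhibitor Ro 20-1724 added with compounds to block cAMP breakdown; potency is the fitted concentration of half-maximal effect; nearly all actives have a fitted effect of over 60% in size; about a fifth of the inactives were tested at one dose only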
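Cells in DMEM/10% FBS with G418 were pretreated with compounds in DMSO plus […] (300 uM stock) for 30 min at 37C. cAMP was measured by HTRF (cAMP-d2 plus anti-cAMP antibody-K) after 30 min at room temperature.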
ClpP mod: qHTS Assay for Activators of ClpP; hit rate 1.9% among 340,000; ATP-dependent Clp protease proteolytic subunit (Bacillus subtilis (strain 168)), P80244; Potency, µM (series often up to 57.5 µM), for inactives: at the highest dose activity change, negative = active; purified B. subtilis ClpP, FRET peptide cleavage, 20 min; active = well fitted falling curve with a large enough effect; inconclusive = small, poorly fitted or top-dose-only effect; inactive = no such curve, though single readings can be large or run the other way; note: potency is the fitted concentration of half-maximal effect; the source files actives as falling curves though it sought activators and does not explain the sign; nearly all actives have a fitted effect of over 65% in size; many hits overshoot -100%
Target sequence (P80244 whole entry, looked up): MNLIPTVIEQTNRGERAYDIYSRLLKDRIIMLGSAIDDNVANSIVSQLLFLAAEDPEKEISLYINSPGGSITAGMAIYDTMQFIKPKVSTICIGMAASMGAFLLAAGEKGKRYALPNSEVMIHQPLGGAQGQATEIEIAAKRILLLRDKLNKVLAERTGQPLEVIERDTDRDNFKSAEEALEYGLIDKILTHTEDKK
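Purified B. subtilis ClpP, 10 microg/mL final in Tris/HCl pH8 with KCl, BSA, glycerol and Tween-20, cleaved an Abz/nitrotyrosine-quenched decapeptide. Fluorescence (ex 320, em 430) was read at 0 and 20 min at room temperature. Delta was normalized to 5.8 microM ADEP and DMSO/no-enzyme controls.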
An asterisk follows results filed as active; ? = inconclusive; . = no result given; & = joins results of further samples; [ ] = another dose, or the depositor's remark. Only part of the results is shown, so the mix of outcomes need not match the whole.

canonical_smiles,TRPV1 PAM,gsp antag,Menin-MLL FL inh,Sfp PPTase inh,CtBP-E1A inh,gsp agonist,ClpP mod
N=Cc1c(O)n(-c2ccc(C34CC5CC(CC(C5)C3)C4)cc2)c(=O)[nH]c1=O,0,-6%,7.4,5%,-9,8%[15.4 µM],-3.7%
CCOP(=O)(OCC)/C(C#N)=C/c1ccc(Br)cc1,-22,0%,5.2,-8%,-1,?,.
COc1cc(CNCCc2ccc3c(c2)OCO3)ccc1O,-13,-7%,4.3,5%,4,0%[15.4 µM],1.9%
CN1CCN(c2ncnc(Cl)c2N)CC1,8,4%,-1.1,17%,-23,-34%[inhibitor],-3.5%
CCOC(=O)c1sc(/N=C/c2c(O)n(-c3cccc(C)c3)c(=O)[nH]c2=O)c(C#N)c1C,-8,23%,20,?,-4,3%,-8.9%
COc1ccc(CCn2c(O)c(C=NCCN3CCCCC3)c(=O)[nH]c2=O)cc1OC,18,7%,0.0,1%,4,1%,0.6%
CN1/C(=C\C=C2C(=O)NC(=S)NC2=O)C(C)(C)c2ccccc21,-12,50µM*,?,-11%,-19,-130%[inhibitor],.
COC(=O)C1=C(c2ccc(-c3ccccc3)c(F)c2)C[C@@H]2CC[C@H]1N2C(=O)NCCOc1ccccc1Cl,5,-8%,.,.,-8,-13%,-13%

Whole records as entered above:
Listed for COc1cc(CNCCc2ccc3c(c2)OCO3)ccc1O : TRPV1 PAM: -13; gsp antag: -7%; Menin-MLL FL inh: 4.3; Sfp PPTase inh: 5%; CtBP-E1A inh: 4; gsp agonist: 0%[15.4 µM]; ClpP mod: 1.9%
Listed for CCOC(=O)c1sc(/N=C/c2c(O)n(-c3cccc(C)c3)c(=O)[nH]c2=O)c(C#N)c1C : TRPV1 PAM: -8; gsp antag: 23%; Menin-MLL FL inh: 20; Sfp PPTase inh: ?; CtBP-E1A inh: -4; gsp agonist: 3%; ClpP mod: -8.9%

Additional entries:
canonical_smiles,TRPV1 PAM,gsp antag,Menin-MLL FL inh,Sfp PPTase inh,CtBP-E1A inh,gsp agonist,ClpP mod
CCOC(=O)N1CCC(NC(=O)CCc2nc(C3=CCN(C)CC3)no2)CC1,4,-2%&3%,-4.7,24%,2&5,-11%&0%,-3.1%&-12%
CCC(=O)Nc1ccc(C(=O)OCc2ccccc2Cl)cc1,-3,?,-0.9,0%,-7,-46%[inhibitor],-5.3%
CC12CCC3c4ccc(OC(=O)N(CCCl)CCCl)cc4CCC3C1CCC2O (stereo unspecified),.,-22%,.,.,5,-15%,1.9%
CC/C(=C(\c1ccc(O)cc1)c1ccc(OCCN(C)C)cc1)c1ccccc1,4,8%,7.1,40µM*,-16,.,-0.2%
COc1nc(NCC2CCCO2)nc(N2CC3CC(C2)c2cccc(=O)n2C3)n1 (stereo unspecified),-4,1%,?,13%,.,-6%,-20%
CC12CN3CC(C)(CN(C1)C3c1cccs1)C2O (stereo unspecified),-6,12%,1.0,-2%,8,6%,-2.1%
CCN(CCCl)Cc1ccccc1Br,.,-1%,1.5,.,7,.,-2.4%
Cn1c(O)c(C(=O)c2ccccc2F)c(=O)n(C)c1=O,-23,0%,1.0,?,1,?,0.4%
CCn1c(O)c(/C=N/N2CCOCC2)c(=O)n(CC)c1=S,-11,-13%,9.1,-6%,-5,?,-0.7%
O=C1N=C(N2CCCCC2)SC1=C1CCCCC1,1,-3%,0.2,-3%,-1,12%,-3.6%
Cc1[nH]c2ccc(OCc3ccccc3)cc2c1CCN,5,9%,0.1,0%,?,-29%,-1.5%
COc1cc2c(cc1OC)C(C(=O)NCCC(C)C)C1CCCCN1C2=O (stereo unspecified),10,7%,6.4,16%,-3,-26%,?
COC(=O)C1=C(c2cccc(C#N)c2)C[C@@H]2CC[C@H]1N2C(=O)NC1CC1,8,15%,.,.,-14,0%,1.1%
O=C1NC(=S)N(c2ccc(F)cc2)C(=O)/C1=C\c1ccoc1,3,-11%,?,20µM*,-9,-7%[15.4 µM],.
COc1cc(/C=N/NC(=O)Cn2c([N+](=O)[O-])cnc2C)ccc1OC(=O)N(C)C,3,3%,-1.1,7%,2,-14%,-0.5%
OC(CC#CCN1CCCCCC1)(c1ccccc1)C1CCCC1 (stereo unspecified),17,8%,1.2,8%,-2,?,2.2%
COC(=O)C1=C(c2ccc(OCc3ccccc3)cc2)C[C@@H]2CC[C@H]1N2C(=O)NCc1ccc2[nH]ccc2c1,.,.,.,.,-1,-46%[inhibitor],-4.9%
Fc1ccc2c(c1)nnn2C1CCN(Cc2c(Cl)cccc2Cl)CC1,-10,-6%,2.1,3%,0,-7%,-5.2%
CC(=O)N1CN2CN(C(C)=O)CC(C(=O)c3ccc(Br)cc3)(C2)C1,11,2%,-0.5,8%,10,?,-4.0%
O=c1[nH]c(O)c(N=Nc2cccc(S(=O)(=O)N3CCOCC3)c2)c(=O)[nH]1,0,4%,-6.0,10%,.,?,0.5%
Cn1cc(C(=O)OCC(=O)NC2(C#N)CCCC2)c2ccccc21,1,6%,.,.,9,3%,0.0%
COc1ccc(OC)c(C2=NOC(C(=O)N3CCC4(CC3)OCCO4)C2)c1 (stereo unspecified),2,-1%,0.2,1%,2,-16%,?
CC1CCN(C(CC(=O)c2ccccc2)C(=O)c2ccccc2)CC1 (stereo unspecified),.,18%,.,.,0,28%,.
CC(Cc1ccccc1)NC=O (stereo unspecified),-4,8%,0.9&-3.0,6%&8%,5,.,-0.2%

Results in CtBP-E1A inh and gsp antag (five entries from above):
compound	CtBP-E1A inh	gsp antag
CC1CCN(C(CC(=O)c2ccccc2)C(=O)c2ccccc2)CC1 (stereo unspecified)	0	18%
Fc1ccc2c(c1)nnn2C1CCN(Cc2c(Cl)cccc2Cl)CC1	0	-6%
CC(Cc1ccccc1)NC=O (stereo unspecified)	5	8%
Cn1cc(C(=O)OCC(=O)NC2(C#N)CCCC2)c2ccccc21	9	6%
CC(=O)N1CN2CN(C(C)=O)CC(C(=O)c3ccc(Br)cc3)(C2)C1	10	2%

Further entries follow.
Screens by letter: A = TRPV1 PAM; B = gsp antag; C = Menin-MLL FL inh; D = Sfp PPTase inh; E = CtBP-E1A inh; F = gsp agonist; G = ClpP mod
C[N+](C)(C)CC#CCOC(=O)Nc1cccc(Cl)c1
  A: .	B: 1%	C: -0.9&-0.8	D: 3%&-10%	E: 1	F: .	G: 2.5%
Clc1ccc(OCC#CCN2CCOCC2)cc1
  A: 6	B: 11%	C: 2.4	D: ?	E: .	F: -41%[inhibitor]	G: 0.0%
NCC(CC(=O)O)c1ccc(Cl)cc1 (stereo unspecified)
  A: 11	B: 11%	C: 6.7&1.7&3.8&-0.2&-4.4	D: 2%&30%&9%&13%	E: 3	F: -15%	G: 0.4%
COc1ccccc1CN1CCN(C(=O)COc2ccc3ccccc3c2)CC1
  A: -40	B: 0%	C: 1.0	D: ?	E: -5	F: 10%	G: -0.5%
CCN(CC)S(=O)(=O)c1ccc(NN=C(C#N)C#N)cc1
  A: ?	B: -30%	C: .	D: 8%	E: -3	F: 6%	G: -1.7%
O=C(CNC(=O)c1ccccc1Cl)Nc1ccc(Br)cc1C(=O)c1ccccc1
  A: 26	B: -24%	C: 5.0	D: -6%	E: 2	F: -29%	G: -1.6%
CCN(CC)CCCNC(=O)c1c(O)c2ccccc2n(Cc2ccccc2)c1=O
  A: 11	B: 14%	C: 1.3	D: -8%	E: 0	F: -34%[inhibitor]	G: -7.0%
CCC1(OC(=O)c2ccccc2)CC(C)N(C)CC1C (stereo unspecified)
  A: 12	B: 0%	C: -1.9	D: 3%	E: 7	F: -16%	G: .
COC(=O)C1=C(c2ccccc2OCc2ccccc2)C[C@@H]2CC[C@H]1N2C(=O)NCCOc1ccc(OC)cc1
  A: -4	B: -2%	C: .	D: .	E: -12	F: -12%	G: -2.1%
Cc1ccc(S(=O)(=O)N(C)C[C@H]2Oc3ncc(Br)cc3C(=O)N([C@H](C)CO)C[C@@H]2C)cc1
  A: .	B: .	C: .	D: .	E: -27	F: 10%	G: -1.5%
COC(=O)N1CCN(C(=O)Cc2ccc(Cl)c(Cl)c2)C(CN2CCCC2)C1 (stereo unspecified)
  A: 7	B: .	C: -1.7&7.3	D: 5%&7%	E: .	F: .	G: .
C[C@H]1CC[C@@H]2N(C1)C[C@H]1[C@@H]3C[C@H]4[C@@H](CC(=O)[C@H]5C[C@@H](O)CC[C@@]54C)[C@@H]3CC[C@H]1[C@]2(C)O
  A: 1	B: 5%	C: -2.1	D: 12%&14%	E: .	F: -6%	G: -2.8%
O=C1NC(=S)N(c2ccc(F)cc2)C(=O)/C1=C/c1ccccc1O
  A: 5	B: 7%	C: -5.0	D: -14%	E: 2	F: -5%	G: 0.0%
